Mtb bLac sens: beta-lactam sensitization of Mtb H37Rv; AID 434955; inhibition, % at 25 µM; M. tuberculosis H37Rv growth with meropenem, percent inhibition; hits of this screen are not shown here; 330,000 tested, 0.27% active;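 active = about 74% or more and at least 40 points above the plate without the antibiotic, then above 30% in a dose series; inconclusive = first-round hits that could not be retested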;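 note: growth measured after seven days incubation then overnight dye step; 0% = bacteria only wells and 100% = bacteria with antibiotic; twin plates without the antibiotic show which effects depend on it; some results filed as inactive read as strong as hits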
Arbovirus inh: arbovirus infection inhibition. arbovirus infection cell-based antiviral screen. inhibition, % at 10 µM. 200,000 tested, 0.37% active. AID 1251;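 active = inhibition from about 30%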;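 note: bluetongue infection of BSR cells; cell survival read as ATP light after 72 h; 0% = infected wells without compound and 100% = uninfected wells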
RecA intein inh: Mtb RecA intein splicing inhibition. cell-free RecA intein splicing, fluorescence. 290,000 tested, 0.75% active. AID 2221. P9WHJ3. inhibition, %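 (about 9 µM by stock and volumes)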; in the data active = inhibition above about 30%; inconclusive = no clear call, values can overlap the other calls;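 note: 0% = vehicle wells and 100% = reference inhibitor control wells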
Target sequence (P9WHJ3 whole entry, looked up): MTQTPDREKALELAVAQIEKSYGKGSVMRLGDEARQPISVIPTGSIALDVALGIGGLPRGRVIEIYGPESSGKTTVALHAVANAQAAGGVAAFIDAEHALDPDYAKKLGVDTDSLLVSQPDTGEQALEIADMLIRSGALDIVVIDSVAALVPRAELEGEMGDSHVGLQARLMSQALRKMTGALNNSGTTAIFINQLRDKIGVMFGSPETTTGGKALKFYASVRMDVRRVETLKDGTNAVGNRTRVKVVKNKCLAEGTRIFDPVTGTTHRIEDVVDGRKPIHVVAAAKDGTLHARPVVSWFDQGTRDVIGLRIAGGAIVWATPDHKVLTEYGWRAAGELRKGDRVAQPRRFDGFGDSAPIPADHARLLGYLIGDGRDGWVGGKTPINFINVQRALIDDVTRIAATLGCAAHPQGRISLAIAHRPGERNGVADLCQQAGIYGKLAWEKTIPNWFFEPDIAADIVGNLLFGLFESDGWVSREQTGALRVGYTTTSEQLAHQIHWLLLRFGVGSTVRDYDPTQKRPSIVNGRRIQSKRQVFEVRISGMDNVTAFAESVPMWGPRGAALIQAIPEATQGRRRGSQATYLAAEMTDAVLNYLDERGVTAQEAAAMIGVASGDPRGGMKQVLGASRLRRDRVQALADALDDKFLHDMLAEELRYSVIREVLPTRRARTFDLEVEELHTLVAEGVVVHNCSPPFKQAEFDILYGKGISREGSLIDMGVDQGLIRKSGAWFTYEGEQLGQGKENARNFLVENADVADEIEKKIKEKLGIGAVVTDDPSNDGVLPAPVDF
Mtb growth: M. tuberculosis H37Rv growth inhibitors, H37Rv strain (AID 1626); inhibition, % at 10 µM, or IC50 in µM where a hit was titrated; M. tuberculosis H37Rv growth inhibition; higher % means a stronger effect; 220,000 tested, 0.95% active;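 active = confirmed in a dose series; inconclusive = inhibition above 80% but not taken into the dose series; inactive = below 80% or under 30% at every dose of the series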;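 note: bacteria incubated seven days before Alamar blue readout; 0% = bacteria only wells and 100% = bacteria with antibiotic wells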
YopH inh: inhibitors of Yersinia enterocolitica YopH tyrosine phosphatase; fluorescence Ex485/Em525; inhibition, %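 (about 10 µM by stock and volumes)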; 140,000 tested, 0.16% active; AID 898;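 active = inhibition of 50% or more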;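 note: controls were vehicle for no effect and minimum signal wells for full effect; inactives centre near -20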
Arbovirus inh repeat: recorded beside Arbovirus inh, whose call it bears; inhibition, %; measured here: 10K subset replicate screen; many hits read low in the repeat;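 first of two repeat runs on a subset; 0% = infected and 100% = uninfected wells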
Starred values were filed as active, the others as inactive; ? = inconclusive; . = no result given. Some of the compounds tested; count on the stated rates, not on these rows.

SMILES | Mtb bLac sens | Arbovirus inh | RecA intein inh | Mtb growth | YopH inh | others
CCOc1ccc(CCNC(=O)CN(C)S(=O)(=O)c2cccc3nsnc23)cc1OCC | -4 | 6 | -0.7 | 0% | 8
Cc1ccc(CNC(=O)C2CCN(S(=O)(=O)c3ccc4nc5c(c(C(=O)O)c4c3)CC(C)CC5)CC2)cc1 (centres undefined) | 4 | . | -2.2 | . | .
Cc1nc2c(cc1N)nc(C)n2Cc1ccccc1 | -7 | . | 0.6 | . | .
COc1ccc(NC(=O)CSc2ccc(-c3ccco3)nn2)cc1OC | -15 | . | -1.9 | . | .
CCC1CCCCN1S(=O)(=O)c1ccc2c(c1)CCN2C(=O)C1CCC1 (centres undefined) | 0 | -13 | 7.7 | 8% | -42
Cc1cccc(OCC(O)Cn2c(=N)n(Cc3ccccc3)c3ccccc32)c1 (centres undefined) | 97 | . | 3.1 | 66% | .
O=C(c1ccco1)N1CCCC(c2nc3c(nnn3Cc3ccc(F)cc3)c(=O)[nH]2)C1 (centres undefined) | 8 | . | -0.7 | . | .
CCOc1ccc(CN(C(=O)/C=C/c2ccco2)C2CCS(=O)(=O)C2)cc1 (centres undefined) | 14 | . | 2.1 | . | .
CC(CCc1ccccc1)NC(=O)CNC(=O)c1ccccc1Br (centres undefined) | 1 | . | 0.2 | . | .
COc1cccc(NC(=O)c2ccc(NC(C)=O)cc2)c1 | -16 | -2 | -0.2 | -8% | -16
OCc1c(OCc2cccc(F)c2)ccc2ccccc12 | 9 | . | 4.6 | . | .
COc1ccc(C2OC(=O)CC2C(=O)NCc2ccc(F)cc2)cc1OC (centres undefined) | -14 | 7 | 0.9 | 5% | .
Cn1c(O)c(N=NC(=O)C2COc3ccccc3O2)c2ccccc21 (centres undefined) | -3 | . | 2.8 | 3% | .
O=C(Nc1nc2ccccc2s1)c1cccc(N2C(=O)CCC2=O)c1 | -5 | . | 1.0 | . | .
CN(C)C(=O)N1CCN(C(=O)c2ccco2)CC1 | ? | -4 | -1.0 | -1% | -20 | Arbovirus inh repeat=-1
N/C(=N\OC(=O)COc1ccccc1Cl)c1ccccn1 | 4 | -29 | . | 5% | -9
COc1cc(C(=O)OCCn2c(=O)c3c(ncn3CCN(C)C)n(C)c2=O)cc(OC)c1OC | 4 | -10 | -2.2 | 4% | -15
Cc1ccc(NC(=O)C2c3ccccc3Oc3ccccc32)c(C)c1 | 3 | -1 | -0.6 | 0% | -5
Cc1ccc(-n2[nH]c(C)c(C=Nc3cc(C)ccn3)c2=O)cc1 | 25 | -10 | 2.4 | -1% | 0
CC(NC(=O)C(C)(C)C)C(c1cccs1)N1CCN(Cc2ccccc2)CC1 (centres undefined) | 2 | . | 0.5 | -11% | .
COC(=O)/C(C#N)=C/c1c(Oc2cc(C)cc(C)c2)nc2c(C)cccn2c1=O | 4 | 4 | -1.0 | 4% | 10
CC1CCN(c2ccc(C(F)(F)F)cc2N)CC1 | -7 | 6 | 1.4 | -3% | .
Cc1cc(C)cc(C(=O)NCC(=O)OCc2c(C)noc2C)c1 | 4 | -8 | -3.1 | 4% | -19
O=C1OC(/C(=C\Nc2cc(Cl)ccc2O)[N+](=O)[O-])c2ccccc21 (centres undefined) | 2 | 6 | -1.2 | 57µM* | .
COc1ccc(CCNS(=O)(=O)CCNC(=O)c2ccc3c(c2)OCO3)cc1OC | 5 | . | -1.1 | . | .

Next part.
SMILES | Mtb bLac sens | Arbovirus inh | RecA intein inh | Mtb growth | YopH inh | others
CCCCCOc1ccc(CSC(=N)N)cc1[N+](=O)[O-] | 6 | -42 | 20 | 7% | -19
Cn1nnnc1SCc1ccc(Cl)cc1 | 2 | 8 | -1.8 | -3% | .
CN1CCc2nc(SCC(=O)Nc3ccc(OC(F)(F)F)cc3)c(C#N)c(-c3cccs3)c2C1 | 0 | -6 | 88* | 1% | -14
Cc1no[n+]([O-])c1COc1ccccc1/C=N/n1nnnc1N | -4 | 13 | 0.7 | -2% | -14
COc1cc(C(C[N+](=O)[O-])c2c(C)cc3ccccn23)ccc1O (centres undefined) | 8 | . | 4.3 | . | .
Cc1ccccc1OCC(O)Cn1c(NCc2ccccc2)nc2c1c(=O)[nH]c(=O)n2C (centres undefined) | 8 | -15 | 1.9 | 0% | -4
COC(=O)c1sc(NC(=O)CC(C)C)c(C(=O)OC)c1C | -3 | -9 | 1.5 | 16% | -6
COc1cccc(N(CC(=O)Nc2cccc(C(C)=O)c2)S(C)(=O)=O)c1 | -6 | -2 | -1.0 | -1% | -21 | Arbovirus inh repeat=1
COc1cc(NC(=O)NCC2CCN(Cc3ccccc3Cl)CC2)cc(OC)c1OC | 3 | . | 1.0 | . | .
CCCCOc1ccccc1NC(=O)C=C(C)C | -1 | 0 | -0.8 | 7% | -29
COc1ccc(N2CCN(C(=O)COC(=O)CCOc3ccc(C)cc3)CC2)cc1 | 2 | . | -1.6 | . | .
CCC(=NCc1ccc(F)cc1)c1c(O)n(C)c(=O)n(C)c1=O | 8 | -36 | -3.6 | -5% | -16
COc1cc(NC(=S)NCCSc2ccc(C)cc2)cc(OC)c1 | -2 | -13 | 8.8 | 11% | -7
O=C(CCC(=O)c1ccc[nH]1)c1ccc(Cl)cc1 | 2 | -3 | 1.6 | -9% | -33
COC(=O)c1ccc(CNC(=O)CCc2c[nH]c3ccccc23)cc1 | 3 | . | 3.4 | . | .
Cc1ccc(Nc2nc(N)[nH]c(=O)c2N=O)cc1 | 3 | . | -3.1 | 5% | .
Cc1cc(C(=O)Nc2ccc(C)c(C)c2)n(-c2ccccc2)n1 | 4 | . | 4.7 | . | .
CCOc1ccc(C(C)(C)C)cc1S(=O)(=O)n1nc(C)cc1C | -1 | -1 | 6.9 | 12% | -39
O=C(/C=C/c1ccc(Cl)c([N+](=O)[O-])c1)NCc1cccnc1 | -15 | . | -0.2 | 2% | 7
CS(=O)(=O)N1CCN(CC(=O)NC2CCCC2)CC1 | -1 | . | -1.7 | . | .
COC(=O)NC(Nc1sc2c(c1C(N)=O)CCCC2)(C(=O)OC)C(F)(F)F (centres undefined) | -1 | -5 | -5.5 | -9% | -34
COc1ccc(CN2CCn3ncc(C(=O)Nc4cccc(C)c4)c3C2=O)cc1 | 0 | -4 | -0.9 | 5% | -25
O=c1[nH]nc(N2CCOCC2)c(=O)[nH]1 | 2 | . | 3.9 | -2% | .
CCOC(=O)c1nc(Nc2cc(C)cc(C)c2)c2ccccc2n1 | 11 | 0 | -3.0 | 9% | .
COC(=O)C(Cc1ccc(OC(=O)c2ccc(C)cc2)cc1)N1Cc2ccccc2C1=O (centres undefined) | 0 | 5 | 4.7 | 13% | -8

Random excerpt: seven entries already listed.
SMILES | Mtb bLac sens | Arbovirus inh | RecA intein inh | Mtb growth | YopH inh | others
CCCCCOc1ccc(CSC(=N)N)cc1[N+](=O)[O-] | 6 | -42 | 20 | 7% | -19
CN1CCc2nc(SCC(=O)Nc3ccc(OC(F)(F)F)cc3)c(C#N)c(-c3cccs3)c2C1 | 0 | -6 | 88* | 1% | -14
O=C(/C=C/c1ccc(Cl)c([N+](=O)[O-])c1)NCc1cccnc1 | -15 | . | -0.2 | 2% | 7
COC(=O)c1sc(NC(=O)CC(C)C)c(C(=O)OC)c1C | -3 | -9 | 1.5 | 16% | -6
Cc1no[n+]([O-])c1COc1ccccc1/C=N/n1nnnc1N | -4 | 13 | 0.7 | -2% | -14
Cc1ccc(Nc2nc(N)[nH]c(=O)c2N=O)cc1 | 3 | . | -3.1 | 5% | .
CCCCOc1ccccc1NC(=O)C=C(C)C | -1 | 0 | -0.8 | 7% | -29

The list continues.
SMILES | Mtb bLac sens | Arbovirus inh | RecA intein inh | Mtb growth | YopH inh | others
CCN1CCN(C(=S)Nc2cccc(C(F)(F)F)c2)CC1 | 1 | 6 | 0.4 | -9% | -25
Cc1ccsc1C(=O)C1CCCN(Cc2cnn(C)c2)C1 (centres undefined) | -1 | 2 | 0.0 | 6% | .
Cc1cnc(C(=O)Nc2ccc(F)cc2)cn1 | -20 | -1 | -1.5 | -5% | -4
Cc1cc(C)c(C(=O)N2CCCC(Nc3ccc(C)c(C)c3)C2)o1 (centres undefined) | 3 | . | 0.4 | . | .
COc1cc(/C=N/n2c(-c3ccccc3)n[nH]c2=S)ccc1O | -2 | . | -1.5 | 10% | .
CCc1c(C)c2cc(Cl)c(O)c(CN3CCCCC3)c2oc1=O | 11 | 4 | -364 | -11% | -36
CCOC(=O)C(C)Sc1nnc(-c2ccccc2O)n1Cc1ccccc1 (centres undefined) | -5 | 7 | 2.7 | 3% | -6
O=c1c(C=NCc2ccccc2)c(NCc2ccccc2)nc2ccccn12 | 16 | 5 | -2.3 | 6% | .
Clc1ccc(OCCn2ccnc2)c(Cl)c1 | 2 | 1 | 2.0 | -5% | -17
CCC1=NN2C(=N)/C(=C\c3cccn3-c3ccc(Br)cc3)C(=O)N=C2S1 | . | 14 | 0.5 | 0% | .
COc1ccc(-n2ncc3c2CC(C)(C)CC3NC(=O)CCN2CCCC2=O)cc1 (centres undefined) | -5 | . | 0.6 | . | .
O=C(COC(=O)c1ccccc1)NC1CCCC1 | 4 | . | -0.6 | . | .
O=C(Cc1ccccc1Cl)Nc1cccnc1 | 3 | 6 | 0.0 | 1% | .
O=C1CN(C(=O)c2ccccc2F)C(c2ccc(F)cc2)c2cc(Br)ccc2N1 (centres undefined) | 0 | . | 21 | . | .
CCOc1ccc(NS(=O)(=O)c2cc(C(=O)N3CCCC3)ccc2Cl)cc1 | -8 | . | -1.7 | . | .
O=c1cc(CN2CCN(CCO)CC2)c2cc3c(cc2o1)CCC3 | -5 | 10 | . | -11% | -19
COc1ccc(NS(=O)(=O)c2ccc(NC(=O)CCNS(=O)(=O)c3ccc(C)cc3)cc2)cc1 | -2 | 4 | -3.0 | 4% | -34
Cc1cc2cc(CNC(=O)c3ccc4c(c3)OCO4)ccc2[nH]1 | -4 | . | 5.6 | 13% | -1
O=C(CC1CCS(=O)(=O)C1)NC1CCCCC1 (centres undefined) | -5 | -4 | 0.6 | -10% | -35
COCCN(Cc1cn(C)nc1-c1ccc(Oc2ccccc2)cc1)C(C)C | 10 | . | -0.9 | . | .
Cc1cccc(OCc2nnc(N)s2)c1C | 3 | 6 | 5.3 | -1% | -40
CCOc1ccc(Br)cc1S(=O)(=O)NCCN1CCCC1 | -4 | . | -0.2 | . | .
CC(NC(=O)c1cccc(S(=O)(=O)N2CCN(C)CC2)c1)C1CC2CCC1C2 (centres undefined) | -1 | -4 | 0.5 | 1% | .
COCCC(=O)N1CCCC(CCC(=O)NCc2ccc(F)c(F)c2)C1 (centres undefined) | -5 | 8 | -1.1 | -3% | .
O=C1CSC(=S)N1/N=C/c1ccc(Cl)c([N+](=O)[O-])c1 | -5 | . | 13 | -3% | .

(cont.)
SMILES | Mtb bLac sens | Arbovirus inh | RecA intein inh | Mtb growth | YopH inh | others
Cc1oc2ccc(NS(=O)(=O)c3ccccc3)cc2c1C(=O)Nc1ccccc1 | 3 | -11 | 6.1 | 12% | -17
Cc1cccc(CC(C)NC(=O)CCc2nnc(-c3ccccc3)o2)n1 (centres undefined) | -9 | 1 | -0.4 | -5% | .
Cc1nc(S(=O)(=O)c2ccc(Cl)cc2Cl)nc2c1CCC2 | 0 | -4 | 0.4 | -5% | -35
O=C(NC1CCC(O)CC1)c1cccc2cccnc12 (centres undefined) | 5 | . | 0.7 | . | .
CCOC(=O)c1ccc(-n2c(CC)nc3ccccc3c2=O)cc1 | -7 | 20 | -0.7 | 17% | .
O=S1(=O)CC/C(=N/Nc2ccccn2)c2cc(F)ccc21 | -8 | . | -4.3 | -8% | .
CC(NC(=O)c1ccc(C(F)(F)F)cc1)C(c1ccccc1)N1CCOCC1 (centres undefined) | 1 | 3 | -0.7 | -1% | .
Cc1ccc2nc(-c3ccc(NC(=O)COCC(=O)O)cc3)sc2c1 | -8 | . | 3.0 | -9% | .
COc1ccc(Nc2nc(N)nc(CSc3nccc(C)n3)n2)cc1 | -1 | 5 | . | -2% | -24
C/C=C\C=C/C(=O)Nc1cccc(C2=NOC3(C2)C[C@@H](C(N)=O)N(C(=O)C2(C)CC2)C3)c1 (some centres undefined) | -2 | . | 0.3 | 0% | .
O=C(NCc1ccc(Cl)cc1)C1CCCN(c2cnccn2)C1 (centres undefined) | -3 | . | 1.4 | . | .
Cc1ccc(S(=O)(=O)N2CCCC(C(=O)NC3=NCCS3)C2)cc1 (centres undefined) | -8 | 1 | -0.8 | 2% | 12
O=S(=O)(c1cccc2cccnc12)N(CCO)CCO | -2 | 9 | 0.2 | -9% | -6 | Arbovirus inh repeat=1

Structures above that contain a COOH group:
SMILES | Mtb bLac sens | Arbovirus inh | RecA intein inh | Mtb growth | YopH inh | others
Cc1ccc(CNC(=O)C2CCN(S(=O)(=O)c3ccc4nc5c(c(C(=O)O)c4c3)CC(C)CC5)CC2)cc1 (centres undefined) | 4 | . | -2.2 | . | .
Cc1ccc2nc(-c3ccc(NC(=O)COCC(=O)O)cc3)sc2c1 | -8 | . | 3.0 | -9% | .

Compound activity from PubChem BioAssay.
